PINK1 expr mod: A Quantitative High throughput Screen to Identify Chemical Modulators of PINK1 Expression. Potency, µM (highest dose often 76.6 µM), without a hit: top-dose activation (PINK1 increase), usual class: activators. 410,000 compounds, 0.2% hits. PINK1 immunofluorescence, high-content cytometry, 24 h; active = well fitted activation curve with a large enough effect; inconclusive = small, poorly fitted or top-dose-only effect; inactive = flat fitted curve, though single readings scatter; cell line not stated here;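 further: potency means the concentration at half of the fitted maximal effect; % of control where 0% means no effect; nearly all actives have a fitted effect of over 65% in size; a mitochondrial uncoupler was the plate control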
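Fluorescence from anti-PINK1 antibody, together with nuclear and cell stains, was scanned on a laser-scanning cytometer. Before staining, stable-line cells were incubated 24 hours with compounds at 5 concentrations; primary antibody 12 h at 10 degrees C.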
TRPML1 agonist: qHTS for Agonists of the Human Mucolipin Transient Receptor Potential 1 (TRPML1); TRPML1-expressing cells, Ca2+ dye fluorescence, FDSS; host cell line not named in the record; reference of the full effect not given here; activation, % (test concentration not listed); 410,000 compounds, 0.12% hits; AID 624414, 2012; in the data active = activation above about 50%; inconclusive = about 30% to 50%; inactive = below about 30%; further: 0% is about no effect; the text of the record puts the active cut at 80%
Target sequence (Q9GZU1 whole entry, looked up): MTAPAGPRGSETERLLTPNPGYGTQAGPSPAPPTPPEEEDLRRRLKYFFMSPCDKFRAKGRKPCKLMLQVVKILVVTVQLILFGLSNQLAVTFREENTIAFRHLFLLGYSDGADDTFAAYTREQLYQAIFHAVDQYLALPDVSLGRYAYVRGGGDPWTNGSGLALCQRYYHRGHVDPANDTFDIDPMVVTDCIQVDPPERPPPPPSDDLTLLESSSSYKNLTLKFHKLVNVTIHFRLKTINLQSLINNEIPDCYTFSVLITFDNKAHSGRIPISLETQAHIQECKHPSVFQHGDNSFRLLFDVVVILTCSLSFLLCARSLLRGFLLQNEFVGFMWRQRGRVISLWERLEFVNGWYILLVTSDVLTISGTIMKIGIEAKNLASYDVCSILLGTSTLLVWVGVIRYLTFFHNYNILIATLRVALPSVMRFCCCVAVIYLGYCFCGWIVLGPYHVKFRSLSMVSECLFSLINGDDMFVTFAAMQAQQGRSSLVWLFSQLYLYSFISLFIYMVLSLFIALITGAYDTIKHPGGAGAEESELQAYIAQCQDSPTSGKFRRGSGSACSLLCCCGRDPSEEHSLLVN
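Tet-induced TRPML1-DL cells, 1,500 per well, cultured overnight, were loaded with a no-wash Ca2+ dye for 45–90 min. Calcium fluorescence was recorded on the FDSS for 110 s after compound addition, before the EC80 agonist (4 uM 54-4) was added.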
Numbers without * were called inactive; ? = inconclusive; & = joins results of further samples. The list is partial. The share of hits here may be higher or lower than overall.

SMILES | PINK1 expr mod | TRPML1 agonist
O=C(NCCc1ccccc1)c1sc2ncccc2c1-n1cccc1 | 2.2% | 2.8
CCCc1cc(=O)oc2cc(C)c3c(-c4ccccc4)c(C)oc3c12 | 0.8% | 1.3
CN(C(=O)CSc1nc2ccc(NC(=O)CCc3ccccc3)cc2s1)c1ccccc1 | 1.0% | 0.5
CC(C)c1ccc(NC(=O)CSc2nc(=O)n(Cc3cccnc3)c3c2CCC3)cc1 | -1.6% | 0.4
Cc1ccc2nc3c(cc(C(=O)NC4CCCCC4)c(=N)n3C(C)C)c(=O)n2c1 | -0.8% | -0.7
Clc1ccc(CNc2ncnc3nc[nH]c23)cc1 | -1.2%&0.2% | -1.1&-0.4
CCOc1ccc(-n2c(SCC(=O)c3ccccc3)nc3c([nH]c4ccccc43)c2=O)cc1 | -4.5% | 0.6
CCN(Cc1ccccc1)Cc1c(O)ccc2c(=O)c(-c3ccccc3Cl)coc12 | 0.8% | 1.8
COc1cc(-c2noc(-c3ccc(NC4CCCC4)c([N+](=O)[O-])c3)n2)cc(OC)c1OC | 4.9% | -0.6
COCCCNC(=O)CSc1nc2cc(OC)c(OC)cc2c2nc(-c3ccccc3)nn12 | 1.1% | -0.6
COc1cccc2c1C(=O)/C(=C/c1ccc(N(C)C)cc1)C2 | 3.8% | -0.3
Cc1ccc(S(=O)(=O)Nc2cc3c(cc2NCc2ccccc2)n(C)c(=O)n3C)c(C)c1 | 5.7% | -1.2
CCc1ccc(Oc2c(C(F)(F)F)oc3c(CN4CCN(C)CC4)c(O)ccc3c2=O)cc1 | -4.4% | 0.5
NC(=O)Cn1c(=O)n(-c2ccc(F)c(Cl)c2)c(=O)c2sc3ccccc3c21 | -0.7% | -0.4
Cc1ccc(N2CCN(C(=O)c3cnn(-c4ccc(F)cc4F)c3C3CCN(C(=O)OC(C)(C)C)CC3)CC2)c(C)c1 | 1.1% | 57.8*
COc1ccc(OC)c2sc(NC(=O)c3ccc(S(=O)(=O)N4CCCC4)cc3)nc12 | -2.7% | 1.1
Cc1ccc2c(=O)c(C(=O)c3ccc(Cl)cc3)cn(CC(=O)NC3CCCCC3)c2n1 | 1.6% | 0.2
COc1ccc(NCc2cc3cc4c(cc3n(CC(=O)Nc3cc(C)ccc3C)c2=O)OCCO4)cc1 | 10.0% | 5.5
CC(=O)c1cc2c(cc1N/C(=N/S(=O)(=O)c1ccc(C)cc1)c1ccc(F)cc1)OCO2 | 10.0% | 0.7
Cc1ccc(S(=O)(=O)N2CCCc3cc(NS(=O)(=O)c4cccc(Cl)c4)ccc32)cc1 | ? | 2.2
Cc1ccc(Cn2c(=O)n(CCCCC(=O)NCc3ccccc3Cl)c(=O)c3ccccc32)cc1 | 13.6% | 0.2
Cc1ccc(C)c(CSc2cn(CCNC(=O)c3cccs3)c3ccccc23)c1 | 17.7% | 1.0
CCN(CCCNC(=O)Cn1ncc2c3ccccc3n(C)c2c1=O)c1cccc(C)c1 | -0.4% | 4.0
COc1ccccc1-c1nn(CCC(=O)Nc2ccccc2)c2nc(C)cc(C)c12 | -5.2% | 2.5
COc1ccccc1/C=C/C(=O)Nc1nc2n(n1)C(c1ccc(F)cc1)C=C(c1ccccc1)N2 (stereo not drawn) | 1.3% | 0.0
Later entries.
SMILES | PINK1 expr mod | TRPML1 agonist
O=C(NCC(c1cccnc1)N1CCc2ccccc21)c1ccc(F)cc1 (stereo not drawn) | -2.2% | 0.7
Cc1ccc(NC(=O)c2ccc(NC(=O)CCS(=O)(=O)c3cccs3)cc2)cc1F | 3.6% | 0.5
CCCOc1ccc(NC(=O)CC2C(=O)N(c3ccc(F)cc3)C(=O)N2CC(C)C)cc1 (stereo not drawn) | 0.0% | -0.6
COc1ccc(C2C(C(=O)Nc3ccccc3)=C(C)Nc3nc(-c4ccccc4)nn32)c(OC)c1 (stereo not drawn) | 2.9% | -0.8
Cc1cccc(-n2c(=O)c3c(c4cc(C)ccc4n3C)n(CC(=O)NCC3CCCO3)c2=O)c1 (stereo not drawn) | -0.1% | 1.8
O=S(=O)(c1ccc(F)cc1)N1CCN(c2nc(-c3cccs3)nc3ccccc23)CC1 | 0.8%&1.0% | 0.1&0.3
COc1ccc(Cl)cc1NC(=O)CSc1ccc(-c2sc(C)nc2C)nn1 | 4.7% | 1.4
CCOC(=O)c1ccccc1NC(=O)CSc1nc(=O)[nH]c2c1CCC2 | 0.7% | 0.4
COc1ccc(CCNc2nc3c(-c4cccc(C)c4)nnn3c3ccccc23)cc1OC | 0.7% | -0.7
O=C(Cn1cc(SCc2ccccc2F)c2ccccc21)N1CCCCCC1 | 8.6% | 1.0
CC(=O)N1CCc2cc(S(=O)(=O)NC(Cc3ccccc3)C(=O)Nc3cc(C)cc(C)c3)ccc21 (stereo not drawn) | 1.5% | -0.5
CC1=C(c2ccc(C(C)C)cc2)S(=O)(=O)N=C1N1CCN(c2ccc(F)cc2)CC1 | 1.8% | 0.0
Cc1ccc2[nH]c(=O)c(CN(Cc3cccs3)Cc3nnnn3Cc3ccco3)cc2c1 | 1.0% | 0.2
O=C(NCCc1nc2ccccc2n1Cc1ccc(Cl)cc1Cl)c1ccco1 | 6.4% | -0.6
CCc1ccc(S(=O)(=O)Nc2ccc3oc(C)c(C(=O)OCCOC)c3c2)cc1 | 2.6% | -0.1
CCCN1Cc2cccc(C(=O)Nc3cc(C)cc(C)c3)c2C1=O | 2.5% | 3.1
COc1ccccc1-c1nc(S(=O)(=O)c2ccccc2)c(N2CCC(C)CC2)o1 | -0.1% | 0.7
CCOc1ccccc1NS(=O)(=O)c1cc(-c2cnc(C3CC3)o2)ccc1C | 2.3% | 2.9
Clc1ccc(CCNc2nc3cc(Cl)c(Cl)cc3n3cnnc23)cc1 | 6.8% | 0.3
COCCNC(=O)C(=O)Nc1c2c(nn1-c1ccccc1)CS(=O)(=O)C2 | 0.7% | -0.2
COc1ccc(Br)cc1CNC(=O)C1CCN(c2nnc(-n3cccc3CNc3ccc(C)cc3)s2)CC1 | -0.4% | 0.8
CCOc1cc(CNC(=O)c2ccc(Cn3c(=O)c4cccn4c4cccnc43)cc2)ccc1OC | 1.2% | 0.0
CCCOc1ccc(C(=O)Nc2cccc(NC(=O)c3cccc(Cl)c3)c2)cc1 | 7.6% | -0.1
O=C1C(c2ccc(F)cc2)N(CCc2ccc(Cl)cc2)C(=O)CN1C1CCCCC1 (stereo not drawn) | -0.3% | 4.8
Cc1ccc2ncc(C(=O)N3CCN(c4ccccc4F)CC3)c(=O)n2c1 | -2.0% | -0.8
Next section.
SMILES | PINK1 expr mod | TRPML1 agonist
CCCCCn1c(CCCNC(=O)c2ccccc2OC)nc2ccccc21 | 2.5% | 0.0
CCOc1ccccc1CNC(=O)c1cnn(-c2ccc(C)cc2)c1-n1cccc1 | 2.4% | 7.3
CC1CCC(C(=O)NC(C(=O)OCC(=O)c2ccc(Br)cc2)C(C)C)CC1 (stereo not drawn) | 10.5% | 1.1
CCN(CC)CCNC(=O)C(=O)NCC(c1ccc2c(c1)OCO2)N1CCOCC1 (stereo not drawn) | 0.7% | 1.8
O=C(O)Cn1c(-c2cccs2)cc2cc(Cl)ccc21 | 0.2% | -0.1
Cc1ccc(CNCc2cn[nH]c2-c2ccc(C)cc2)cc1 | 0.5% | 0.0
COc1cccc2c1cc1c(=O)n(CC(=O)N3CCN(c4ccc(Cl)cc4)CC3)nc(C)n12 | 0.7% | 0.2
COc1ccc(OCCCn2c(CCNC(=O)C3CCCCC3)nc3ccccc32)cc1 | 1.4% | -0.7
COC(=O)c1ccc(Cl)cc1NC(=O)N1CCC(CN2CCCC2)CC1 | -0.4% | 1.0
CC(C)(C)c1ccc(C(=O)Nc2nnc3n2CCS3)cc1 | 2.0% | 0.1
Cc1c(C(=O)NCc2ccccc2Cl)sc2nc[nH]c(=O)c12 | 5.0% | -0.2
COc1ccc(C(=O)NC2CC(=O)N(c3ccc4c(c3)OCCO4)C2)cc1 (stereo not drawn) | -0.5% | -0.6
Brc1ccc(-c2cc3c(N4CCN(c5ccccc5)CC4)nccn3n2)cc1 | 2.7% | 0.1
O=C(CSc1nnc2scc(-c3ccccc3)n12)Nc1ccc(Cl)cc1 | 6.9% | 2.9
Cc1ccc(CN2CCSc3ccc(C(=O)Nc4ccc(F)cc4F)cc32)cc1 | -0.5% | 0.6
CCOc1ccc(NC(=O)CSc2nc(-c3cccc(Cl)c3)nc3c2Cc2c(CO)cnc(C)c2O3)cc1 | 0.2% | 2.1
COc1cccc(/C=C2/SC(=S)N(CC(=O)Nc3nccs3)C2=O)c1 | -1.1% | -0.6
Cc1ccc(N(CC(=O)N2CCN(c3cccc(Cl)c3)CC2)S(=O)(=O)c2c(C)noc2C)cc1 | 1.5% | 0.4
Cc1cccc(C(=O)Nc2cc(-c3ccccc3F)nn2-c2ccccc2)c1 | 3.6% | 0.1
Cc1ccc2[nH]c(CSc3nnc(NC(=O)COc4ccccc4Cl)s3)cc(=O)c2c1 | 2.6% | 1.3
COc1cc(NC(=O)CNS(=O)(=O)c2cccs2)cc(OC)c1OC | -4.4% | 0.0
COc1cccc(-c2[nH]c3c(c2-c2c(-n4cccc4)n(C)c(=O)[nH]c2=O)c(=O)[nH]c(=O)n3C)c1 | 0.5% | -0.7
O=C(OCc1cc(=O)n2c3c(sc2n1)CCCC3)c1cccc(NC(=O)c2ccccc2F)c1 | -1.9% | 2.8
Cc1ccc(CNC(=O)Cn2cc(C(=O)c3ccc(Cl)cc3)c(=O)c3ccc(C)nc32)cc1 | -0.1% | -0.5
COc1cccc(N2CC(NC(=O)/C=C\c3ccc4c(c3)OCO4)CC2=O)c1 (stereo not drawn) | -0.6% | -1.0

An excerpt from above in order of formula weight, smallest number first:
SMILES | PINK1 expr mod | TRPML1 agonist
COc1ccc(C(=O)NC2CC(=O)N(c3ccc4c(c3)OCCO4)C2)cc1 (stereo not drawn) | -0.5% | -0.6
COc1cccc2c1cc1c(=O)n(CC(=O)N3CCN(c4ccc(Cl)cc4)CC3)nc(C)n12 | 0.7% | 0.2
Cc1ccc2[nH]c(CSc3nnc(NC(=O)COc4ccccc4Cl)s3)cc(=O)c2c1 | 2.6% | 1.3

(cont.)
SMILES | PINK1 expr mod | TRPML1 agonist
COc1ccccc1OCc1nc2ccccc2n1Cc1ccccc1 | 1.0% | 0.3
c1ccc(Nc2nc(-c3ccccc3)c(-c3ccccc3)s2)cc1 | 5.2% | -0.5
CCOC(=O)c1[nH]c(C)c(CCC(=O)Nc2ccccc2OCC)c1C | 6.2% | -0.9
Cc1ccc(C)c(N2CCN(C(=O)c3noc4c3CCCCC4)CC2)c1 | ? | 1.5
COc1ccc(CCNC(=O)Cn2c(=O)c3cccn3c3ccccc32)cc1OC | -1.1% | 2.1
CCCCC(CC)CNC(=O)C1CCC(CNS(=O)(=O)c2cccc3nsnc23)CC1 (stereo not drawn) | 4.5% | 0.5
Cc1ccc(C)c(Cn2nnc(C(=O)NCc3ccccc3)c2N)c1 | ? | 0.3
CCN1CCN(C(=O)Cn2ncc3c4ccccc4n(Cc4ccccc4F)c3c2=O)CC1 | 0.6% | -0.8
Cc1ccc(NC(=O)CN2C(=O)c3cccnc3Sc3ccccc32)cc1C | 1.7% | -1.0
Cc1cccc2c1N(Cc1ccccc1OCCC(C)C)C(=O)C2=O | -0.3% | 2.7
Cc1ccccc1OCC(=O)NCC(=O)OCC(=O)c1ccc(Br)cc1 | 0.9% | 1.6
CC1CCN(S(=O)(=O)c2ccc3c(c2)CCN3C(=O)Nc2ccc(Br)cc2F)CC1 | 3.6% | 0.7
Cc1ccc(C2C=C(c3ccccc3)Nc3nc(NS(=O)(=O)c4ccccc4)nn32)cc1 (stereo not drawn) | -0.2% | 14.4
COc1ccc(CCn2c(=S)[nH]c(=O)c3c(C)cc(C)nc32)cc1OC | 1.2% | -0.5
COc1ccc(OCCn2nnc3sc4c(c3c2=O)CCCC4)cc1 | 2.4% | 1.8
CCS(=O)(=O)N1CCCc2cc(C(=O)Nc3cccc(C(C)=O)c3)ccc21 | 0.2% | -0.4
COc1cc(NC(=O)CCS(=O)(=O)c2nc(-c3cccs3)cc(C(F)(F)F)n2)cc(OC)c1OC | 2.5% | 2.5
CSCCC(NS(=O)(=O)c1cccs1)C(=O)Nc1ccc(C)c(Cl)c1 (stereo not drawn) | 10.7% | 4.5
Cc1ccc(CCNC(=O)c2ccc(CSCc3ccc(C)cc3)o2)cc1 | 0.9% | 4.2
Cc1cc(C)cc(OCC(=O)Nc2c(C)ccc3nsnc23)c1 | -0.6% | 0.8
CC(=O)Nc1cccc(-c2nnc(SCC(=O)c3cc([N+](=O)[O-])ccc3Br)o2)c1 | 2.3% | 0.3
COc1ccc(OC)c(CCNC(=O)C2=C(C)C(=O)OC23CCC(C)CC3)c1 (stereo not drawn) | 1.5% | 0.4

A different layout for some results above.
| SMILES | PINK1 expr mod | TRPML1 agonist |
| --- | --- | --- |
| Cc1ccc(CN2CCSc3ccc(C(=O)Nc4ccc(F)cc4F)cc32)cc1 | -0.5% | 0.6 |
| CCOc1ccc(NC(=O)CSc2nc(-c3cccc(Cl)c3)nc3c2Cc2c(CO)cnc(C)c2O3)cc1 | 0.2% | 2.1 |
| COc1cccc(/C=C2/SC(=S)N(CC(=O)Nc3nccs3)C2=O)c1 | -1.1% | -0.6 |
| Cc1ccc(N(CC(=O)N2CCN(c3cccc(Cl)c3)CC2)S(=O)(=O)c2c(C)noc2C)cc1 | 1.5% | 0.4 |
| Cc1cccc(C(=O)Nc2cc(-c3ccccc3F)nn2-c2ccccc2)c1 | 3.6% | 0.1 |

Bioassay records: PubChem BioAssay, National Center for Advancing Translational Sciences (NCATS)
